HNF4A DNA FP = change in binding of human HNF4 alpha to DNA. HNF4a-FITC DNA binding, fluorescence polarization, 1 h. activity change, % at 10 µM. actives 0.3% (n = 360,000); in the data active = activity change above about 30%, passing the limit was not always enough;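 also: controls were the assay level and a saturating level of protein; the project sought stronger binding though the title names inhibitors; some compounds called inactive have numbers as strong as hits; positive values seem to mean higher polarization but the record does not say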
Target sequence (P41235 whole entry, looked up): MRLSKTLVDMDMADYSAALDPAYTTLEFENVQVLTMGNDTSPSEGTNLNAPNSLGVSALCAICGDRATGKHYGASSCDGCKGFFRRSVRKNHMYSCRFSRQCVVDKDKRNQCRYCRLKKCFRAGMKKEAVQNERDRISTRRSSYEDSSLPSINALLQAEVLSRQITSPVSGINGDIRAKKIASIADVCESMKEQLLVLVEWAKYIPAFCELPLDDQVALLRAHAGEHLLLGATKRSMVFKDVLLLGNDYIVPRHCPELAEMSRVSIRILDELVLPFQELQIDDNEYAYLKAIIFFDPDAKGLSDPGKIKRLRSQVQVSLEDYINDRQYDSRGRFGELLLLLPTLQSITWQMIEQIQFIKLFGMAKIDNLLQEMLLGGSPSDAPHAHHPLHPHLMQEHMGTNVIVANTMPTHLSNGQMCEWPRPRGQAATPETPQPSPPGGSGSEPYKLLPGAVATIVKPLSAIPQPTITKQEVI
ALR H2O2 inh = blocks human ALR sulfhydryl oxidase activity. P55789. purified ALR, DTT oxidation, H2O2 HRP-luminol luminescence. inhibition, % (test concentration not listed). actives 3.8% (n = 290,000). AID 485317;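 active = mean and each replicate at 75% or more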;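 also: stock transfer was 7.5 nL into about 7.5 µL; 0% = neutral wells and 100% = wells with inactivated enzyme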
FGF22 binding = binders of recombinant human FGF22 by thermal shift; SYPRO orange fluorescence; percent of sucrose octasulfate shift, DMSO zero; calls only at 9.99 µM; actives 1.5% (n = 340,000);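 active = melting point raised past a set limit in the mean and every replicate; three in four hits are not shown here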
Target sequence (Q9HCT0 whole entry, looked up): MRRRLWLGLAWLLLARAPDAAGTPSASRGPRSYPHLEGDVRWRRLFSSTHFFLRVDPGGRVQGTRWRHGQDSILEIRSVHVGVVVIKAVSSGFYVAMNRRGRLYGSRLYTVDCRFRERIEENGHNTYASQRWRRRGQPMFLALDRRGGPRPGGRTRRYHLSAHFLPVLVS
LANA-H2A inh = blocks KSHV LANA binding to histone H2A/H2B. inhibition, % (concentration not given with the values). actives 0.6% (n = 320,000). cell-free LANA-H2A/H2B peptide, fluorescence polarization. AID 2629. Q9QR71; in the data active = inhibition mostly above about 10%, no sharp cut-off; inactive = mostly below about 6.7%;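 also: stock transfer was 7.5 nL into about 10 µL; 0% = median of vehicle wells and 100% = median of positive control wells; one replicate is shown; the record names a cut of 25% in any replicate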
E coli growth = E. coli growth inhibition; Escherichia coli growth, OD600, 23 h; hits give low values; OD600 absorbance (test concentration not listed); actives 0.21% (n = 330,000);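 active = OD600 absorbance below the run mean of sample wells minus 3.6 SD, in any replicate, cut at about 0.56 in these data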;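 also: stock transfer was 300 nL into about 60 µL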
UCH37 inh = human UCH37 deubiquitinating enzyme inhibition; Q9Y5K5; purified proteasome/UCH37, Ub-AMC cleavage fluorescence; inhibition, % (concentration not given with the values); actives 0.33% (n = 330,000);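 active = mean of two replicates above 20%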;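 also: 0% = compound-free wells with enzyme and 100% = wells lacking proteasome; stock transfer was 100 nL into about 20 µL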
Target sequence (Q9Y5K5 whole entry, looked up): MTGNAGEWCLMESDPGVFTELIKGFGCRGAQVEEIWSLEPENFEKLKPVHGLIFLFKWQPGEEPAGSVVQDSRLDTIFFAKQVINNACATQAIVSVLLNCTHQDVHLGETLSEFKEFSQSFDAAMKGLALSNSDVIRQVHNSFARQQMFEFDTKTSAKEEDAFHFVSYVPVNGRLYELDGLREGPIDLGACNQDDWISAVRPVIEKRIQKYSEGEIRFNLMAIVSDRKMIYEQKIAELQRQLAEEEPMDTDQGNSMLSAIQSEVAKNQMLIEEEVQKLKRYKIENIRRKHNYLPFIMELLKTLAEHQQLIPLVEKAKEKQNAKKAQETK
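Signal – fluorescence, ex 355 nm, em 460 nm · System – Proteasome-bound UCH37 · Input – 0.15 nM proteasome as dispensed · Timing – 30 min preincubation with enzyme, 25 min cleavage at room temperature · Read-out basis – percent inhibition of cleavage signal versus uninhibited and no-proteasome wells · Medium – Tris-HCl pH 7.4 with ATP-MgCl2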
B2AR ag = human beta-2 adrenergic receptor agonism by FAP. Am2.2-beta2AR cells, FAP receptor internalization, flow cytometry; reference of the scale not given here. response, % (concentration not given with the values). actives 0.43% (n = 340,000);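 active = response above a set limit, near 3 SD of response in nonfluorescent compounds, cut at about 42% in these data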;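 also: stock transfer was 100 nL into about 11 µL; a reference agonist was the positive control; negative values mostly stem from fluorescent compounds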
Starred values were filed as active, the others as inactive. Only part of the results is shown; count on the stated rates, not on these rows.

O=C(O)c1cccnc1Sc1ncnc2sc3c(c12)CCC3 was read as HNF4A DNA FP -4.1, FGF22 binding inactive, LANA-H2A inh -0.1, E coli growth 0.657, UCH37 inh -183.0 and B2AR ag -7.6.
Screening CCNS(=O)(=O)c1ccc(NC(=O)Nc2cc(C)ccc2OC)cc1 returned HNF4A DNA FP 1.1, ALR H2O2 inh -1.3, FGF22 binding inactive, LANA-H2A inh -4.1, E coli growth 0.703, UCH37 inh -1.5 and B2AR ag 13.3.
O=C(CC1NCCNC1=O)Nc1ccc(Oc2ccccc2)cc1 (stereo unspecified) was read as HNF4A DNA FP 1.2, ALR H2O2 inh -17.0, LANA-H2A inh -1.3, E coli growth 0.65, UCH37 inh 1.4 and B2AR ag -18.1.
Screening COc1ccccc1C(CNc1ncccc1[N+](=O)[O-])N(C)C (stereo unspecified) returned HNF4A DNA FP -0.3, FGF22 binding inactive, LANA-H2A inh -2.0, E coli growth 0.696, UCH37 inh 1.1 and B2AR ag 0.9.
`O=C1CCN(Cc2cccnc2)CCN1[C@H](CO)c1ccccc1` gave HNF4A DNA FP -6.6, ALR H2O2 inh 1.2, FGF22 binding inactive, LANA-H2A inh -1.9, E coli growth 0.78, UCH37 inh 0.8 and B2AR ag -1.7.
COc1cc(NS(=O)(=O)c2ccc3c(c2)oc(=O)n3C)cc(OC)c1OC was read as HNF4A DNA FP 1.2, ALR H2O2 inh 1.7, FGF22 binding inactive, LANA-H2A inh -4.1, E coli growth 0.737, UCH37 inh 2.5 and B2AR ag -26.4.
Screening O=C(Nc1ccc(OC(F)(F)F)cc1)C1CCCN(S(=O)(=O)c2cnc[nH]2)C1 (stereo unspecified) returned HNF4A DNA FP -19.5, ALR H2O2 inh -1.8, LANA-H2A inh 4.6, E coli growth 0.684, UCH37 inh 7.6 and B2AR ag 2.0.
For CC1(c2ccccc2)CC(c2ccccc2)=C(C#N)C(=O)N1 (stereo unspecified) the results were HNF4A DNA FP -3.8, FGF22 binding inactive and B2AR ag -1.3.
For Cc1nnc(N2CCC(C(=O)NC3CCC(C)CC3)CC2)c2nn(-c3ccc(Cl)cc3)c(C)c12 (stereo unspecified) the results were HNF4A DNA FP 4.9, ALR H2O2 inh -3.9, LANA-H2A inh 0.9, E coli growth 0.693, UCH37 inh -13.1 and B2AR ag 1.9.
For O=C(NCc1ccc(F)cc1)c1cccc(NC2=NC3CS(=O)(=O)CC3S2)c1 (stereo unspecified) the results were HNF4A DNA FP 4.1, ALR H2O2 inh 1.3, FGF22 binding inactive, LANA-H2A inh -3.5, E coli growth 0.705, UCH37 inh 0.5 and B2AR ag -2.7.
O=C(/C=C/c1ccc2c(c1)OCCO2)c1ccc(O)cc1 was read as HNF4A DNA FP 1.9, FGF22 binding active, LANA-H2A inh 3.0, E coli growth 0.637, UCH37 inh 3.9 and B2AR ag -5.5.
Screening Oc1ccc2ccccc2c1/C=N/c1nccs1 returned HNF4A DNA FP -1.8, ALR H2O2 inh -36.8, LANA-H2A inh 2.9 and B2AR ag 2.7.
Screening CC(=O)Nc1ccc(NC(=O)/C(=C/c2ccco2)NC(=O)c2ccccc2)cc1 returned HNF4A DNA FP 0.9, ALR H2O2 inh -2.4, FGF22 binding inactive, LANA-H2A inh -9.8, E coli growth 0.701, UCH37 inh 10.2 and B2AR ag 2.8.
For CC(C)(C)NC(=O)COC(=O)C1c2ccccc2Oc2ccccc21 the results were HNF4A DNA FP 0.0, ALR H2O2 inh 1.5, FGF22 binding inactive, LANA-H2A inh -5.1, E coli growth 0.655, UCH37 inh 1.8 and B2AR ag -0.2.
`C=CCn1c(Sc2nnc(C)s2)nc2c1c(=O)[nH]c(=O)n2C` gave HNF4A DNA FP 2.2, ALR H2O2 inh -17.2, LANA-H2A inh -0.6, E coli growth 0.64, UCH37 inh -0.6 and B2AR ag -2.2.

Structures listed so far with fluorine (2):
Screening O=C(Nc1ccc(OC(F)(F)F)cc1)C1CCCN(S(=O)(=O)c2cnc[nH]2)C1 (stereo unspecified) returned HNF4A DNA FP -19.5, ALR H2O2 inh -1.8, LANA-H2A inh 4.6, E coli growth 0.684, UCH37 inh 7.6 and B2AR ag 2.0.
For O=C(NCc1ccc(F)cc1)c1cccc(NC2=NC3CS(=O)(=O)CC3S2)c1 (stereo unspecified) the results were HNF4A DNA FP 4.1, ALR H2O2 inh 1.3, FGF22 binding inactive, LANA-H2A inh -3.5, E coli growth 0.705, UCH37 inh 0.5 and B2AR ag -2.7.

The main list resumes, repeating the two entries before the break.
For CC(C)(C)NC(=O)COC(=O)C1c2ccccc2Oc2ccccc21 the results were HNF4A DNA FP 0.0, ALR H2O2 inh 1.5, FGF22 binding inactive, LANA-H2A inh -5.1, E coli growth 0.655, UCH37 inh 1.8 and B2AR ag -0.2.
`C=CCn1c(Sc2nnc(C)s2)nc2c1c(=O)[nH]c(=O)n2C` gave HNF4A DNA FP 2.2, ALR H2O2 inh -17.2, LANA-H2A inh -0.6, E coli growth 0.64, UCH37 inh -0.6 and B2AR ag -2.2.
For COc1ccccc1OCCCc1c(C)n[nH]c1C the results were HNF4A DNA FP -7.5, ALR H2O2 inh -7.2, FGF22 binding inactive, LANA-H2A inh -1.8, E coli growth 0.713, UCH37 inh 3.2 and B2AR ag 7.3.
COc1ccccc1N1CCN(Cc2c[nH]c3ccccc23)CC1 was read as HNF4A DNA FP -5.8, ALR H2O2 inh 2.0, FGF22 binding inactive, LANA-H2A inh -4.6, E coli growth 0.686, UCH37 inh 3.2 and B2AR ag 4.2.
`CS(=O)(=O)N1CCc2cc(C(=O)OCC(=O)c3ccccc3)ccc21` gave HNF4A DNA FP 0.8, ALR H2O2 inh -4.4, LANA-H2A inh 3.9, E coli growth 0.751, UCH37 inh 5.8 and B2AR ag -5.2.
`CCC1(CC)NC(=O)N(CC(=O)NCc2ccc3c(c2)OCO3)C1=O` gave HNF4A DNA FP 1.4, ALR H2O2 inh 9.3, LANA-H2A inh 1.3, E coli growth 0.699, UCH37 inh 3.3 and B2AR ag 4.1.
Cc1c(C(=O)NC(=S)Nc2cccnc2)cccc1[N+](=O)[O-] was read as HNF4A DNA FP 1.4, ALR H2O2 inh -8.9, FGF22 binding inactive, LANA-H2A inh -0.8, E coli growth 0.714, UCH37 inh 2.2 and B2AR ag -8.6.
CC1(c2ccc3c(c2)OCCO3)NC(=O)N(CC(=O)Nc2ccccc2)C1=O (stereo unspecified) was read as HNF4A DNA FP 1.3, ALR H2O2 inh -1.6, FGF22 binding inactive, LANA-H2A inh -4.0, E coli growth 0.696, UCH37 inh -3.3 and B2AR ag 1.6.
CCOC(=O)c1cccc(NS(=O)(=O)c2c(C)[nH]c(=O)[nH]c2=O)c1 was read as HNF4A DNA FP -0.8, LANA-H2A inh 2.4, E coli growth 0.718, UCH37 inh 2.5 and B2AR ag -2.6.
`O=C(Nc1cnccn1)c1cccs1` gave HNF4A DNA FP -4.3, ALR H2O2 inh -3.5, LANA-H2A inh -0.5, E coli growth 0.633, UCH37 inh 0.5 and B2AR ag -5.3.
COc1ccc(NS(=O)(=O)c2cccc(Cl)c2Cl)cc1S(=O)(=O)N1CCCCC1 was read as HNF4A DNA FP -2.3, ALR H2O2 inh -4.2, FGF22 binding inactive, LANA-H2A inh 2.6, E coli growth 0.676, UCH37 inh 6.5 and B2AR ag -1.0.
`O=C(Nc1ccc(S(=O)(=O)N2CCCCC2)cc1)c1ccncc1` gave HNF4A DNA FP 1.8, ALR H2O2 inh -1.6, LANA-H2A inh 3.6, E coli growth 0.645, UCH37 inh 4.1 and B2AR ag -4.6.
CCCCSc1nnc(CCC)n1N was read as HNF4A DNA FP -2.2, ALR H2O2 inh 6.8, LANA-H2A inh -8.3, E coli growth 0.692, UCH37 inh 0.6 and B2AR ag 7.7.
For O=C1C2C3CCC(C3)C2C(=O)N1c1ccc2ccccc2c1 (stereo unspecified) the results were HNF4A DNA FP 1.1, ALR H2O2 inh 1.8, FGF22 binding inactive, LANA-H2A inh 0.7, E coli growth 0.66, UCH37 inh 5.6 and B2AR ag 1.0.
`CCCOc1ccc(C(C)=O)cc1Cc1c(O)nc(SC)[nH]c1=O` gave HNF4A DNA FP 1.4, ALR H2O2 inh -3.1, FGF22 binding inactive, LANA-H2A inh -4.9, E coli growth 0.684, UCH37 inh 4.0 and B2AR ag -0.1.
`O=C(Nc1ccc(N2CCCC2)cc1)c1ccc2ccccc2c1` gave HNF4A DNA FP 8.3, FGF22 binding inactive, LANA-H2A inh 1.5, E coli growth 0.688, UCH37 inh 5.8 and B2AR ag 1.2.
`CC(C)CN1C(=O)NC(NC(=O)c2ccco2)(C(F)(F)F)C1=O` (stereo unspecified) gave HNF4A DNA FP 38.6*, ALR H2O2 inh -15.6, LANA-H2A inh 3.2, E coli growth 0.69, UCH37 inh -1.7 and B2AR ag 3.5.
`O=C(N/N=C\c1ccc(-c2ccccc2[N+](=O)[O-])o1)C1COc2cc3ccccc3cc2O1` (stereo unspecified) gave HNF4A DNA FP -9.8, ALR H2O2 inh -3.0, LANA-H2A inh -2.7 and B2AR ag 4.2.
For O=C(CN1CCN(Cc2ccccc2)CC1)N=Nc1c(O)[nH]c2ccccc12 the results were HNF4A DNA FP -5.4, ALR H2O2 inh -3.2, LANA-H2A inh -2.4, E coli growth 0.688, UCH37 inh 9.5 and B2AR ag -10.7.
COc1ccc(N2CCN(CCNC(=O)CCC(=O)NNc3nc4ccccc4c4nc(C)nn34)CC2)cc1 was read as HNF4A DNA FP -3.6, ALR H2O2 inh 95.8*, LANA-H2A inh 4.0, E coli growth 0.648, UCH37 inh -0.3 and B2AR ag 2.1.
C[C@H]1COC(=O)[C@@H](CC(=O)OC(C)(C)C)C/C=C\C[C@@H](CC(=O)N(CCO)Cc2ccccc2)C(=O)N1 was read as HNF4A DNA FP -5.2, ALR H2O2 inh 1.4, FGF22 binding inactive, LANA-H2A inh 2.7, UCH37 inh 4.7 and B2AR ag -2.9.
`CC1CC(C)CN(CCOCCSc2ccc(Cl)cc2)C1` (stereo unspecified) gave HNF4A DNA FP -0.9, ALR H2O2 inh -9.9, FGF22 binding inactive, LANA-H2A inh -4.6, E coli growth 0.662, UCH37 inh 5.3 and B2AR ag 18.8.
CSc1ccccc1NC(=O)CN(C)C(=O)c1cccc(S(=O)(=O)N(C)C)c1 was read as HNF4A DNA FP -0.8, ALR H2O2 inh 0.9, FGF22 binding inactive, LANA-H2A inh 7.8, E coli growth 0.7, UCH37 inh 3.9 and B2AR ag 2.6.
`CC(C)CC(OC(=O)CC1Sc2ccccc2NC1=O)C(=O)NC1CCCC1` (stereo unspecified) gave HNF4A DNA FP 2.3, ALR H2O2 inh -0.8, FGF22 binding inactive, LANA-H2A inh 3.0, E coli growth 0.651, UCH37 inh 6.0 and B2AR ag 3.6.
For O=C(NC1CC1)C1CCN(c2ccc(S(=O)(=O)N3CCOCC3)cc2)CC1 the results were HNF4A DNA FP 0.9, FGF22 binding inactive, E coli growth 0.714, UCH37 inh 1.6 and B2AR ag -8.2.
For COC(=O)CN1C(=S)N(c2ccc(Cl)cc2)C(=O)C1CC(=O)Nc1ccc(F)cc1 (stereo unspecified) the results were HNF4A DNA FP 3.0, ALR H2O2 inh 32.1, FGF22 binding active, LANA-H2A inh 0.8, E coli growth 0.69, UCH37 inh 0.8 and B2AR ag 4.7.
Screening O=S(=O)(Nc1ccccc1O)c1cccc2cccnc12 returned HNF4A DNA FP 2.7, ALR H2O2 inh 5.9, FGF22 binding inactive, LANA-H2A inh -5.6, E coli growth 0.683, UCH37 inh 0.1 and B2AR ag 4.3.
For O=C(CNC(=O)C1CCCCC1)OCC(=O)c1ccc(Br)cc1 the results were HNF4A DNA FP 1.4, FGF22 binding inactive, E coli growth 0.649, UCH37 inh 2.9 and B2AR ag -1.9.
Screening O=C(CCNS(=O)(=O)c1ccccc1)OCC(=O)c1ccc(Cl)cc1 returned HNF4A DNA FP -4.3, ALR H2O2 inh -1.7, FGF22 binding inactive, LANA-H2A inh -1.7, E coli growth 0.667, UCH37 inh 1.5 and B2AR ag 1.2.

Source: PubChem BioAssay
